HIV Env fusion – blocks HIV Env-driven cell-cell fusion; HeLa-JRFL Env/CEM21 cell fusion, luciferase; inhibition, % at 12.3 µM; 360,000 compounds, 1.1% hits; AID 651610;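 active = mean replicate inhibition score of at least 50 and every replicate individually at or above 50; inconclusive = only one of the two criteria met; inactive = mean below 50 and not all replicates reaching 50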;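 also: 0% = plate neutral controls and 100% = maraviroc near 300 nM; one replicate is shown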
UUG fidelity – modulators of start codon recognition fidelity in yeast | S. cerevisiae UUG-firefly luciferase reporter, luminescence/redox ratio | activity score, % at 18.7 µM | 350,000 compounds, 0.13% hits | AID 602363;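 active = replicate mean at a twofold rise or more, about +100% in these data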;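 also: firefly luciferase made from a UUG start codon reports start codon fidelity; reporter light over untreated wells divided by growth signal over untreated wells; some hits fall short of that in this replicate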
MT1-MMP act inh – MT1-MMP (human) activation inhibition; P50281; HT1080 RFP-PRO-GFP cells, GFP/RFP ratio fluorescence, overnight; percent of plate control window, DMSO zero; GFP/RFP ratio change, % at 20 µM; 360,000 compounds, 0.061% hits; AID 651647;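 active = GFP/RFP ratio change of at least 30% with cell ATP level not reduced by more than half and red fluorescence within 50% of control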; also: strong numbers were not always called active
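Compound: 20 µM single dose, 1% DMSO / System: HT1080 RFP-PRO-GFP cells / Controls: DMSO and RFP-L50D-GFP cell wells / Read-out basis: GFP/RFP fluorescence ratio / Schedule: overnight compound exposure at 37 °C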
PABP FP inh – blocks human PABP binding to poly(A) RNA; 290,000 compounds, 1% hits; P11940; inhibition, % at 35 µM; fluorescence polarization;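 active = 50% or more with normal probe brightness, or confirmed in later tests; inconclusive = above 50% with abnormal brightness, or retests that disagree; inactive = below 50% or failed in later tests; about a fifth of its hits are not listed in these tables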;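 also: calls also rest on retests at 20 µM and on dose response follow-up; controls were probe without protein and protein plus probe with vehicle; some compounds called inactive have numbers as strong as hits; many hits fall short of the cut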
Target sequence (P11940 whole entry, looked up): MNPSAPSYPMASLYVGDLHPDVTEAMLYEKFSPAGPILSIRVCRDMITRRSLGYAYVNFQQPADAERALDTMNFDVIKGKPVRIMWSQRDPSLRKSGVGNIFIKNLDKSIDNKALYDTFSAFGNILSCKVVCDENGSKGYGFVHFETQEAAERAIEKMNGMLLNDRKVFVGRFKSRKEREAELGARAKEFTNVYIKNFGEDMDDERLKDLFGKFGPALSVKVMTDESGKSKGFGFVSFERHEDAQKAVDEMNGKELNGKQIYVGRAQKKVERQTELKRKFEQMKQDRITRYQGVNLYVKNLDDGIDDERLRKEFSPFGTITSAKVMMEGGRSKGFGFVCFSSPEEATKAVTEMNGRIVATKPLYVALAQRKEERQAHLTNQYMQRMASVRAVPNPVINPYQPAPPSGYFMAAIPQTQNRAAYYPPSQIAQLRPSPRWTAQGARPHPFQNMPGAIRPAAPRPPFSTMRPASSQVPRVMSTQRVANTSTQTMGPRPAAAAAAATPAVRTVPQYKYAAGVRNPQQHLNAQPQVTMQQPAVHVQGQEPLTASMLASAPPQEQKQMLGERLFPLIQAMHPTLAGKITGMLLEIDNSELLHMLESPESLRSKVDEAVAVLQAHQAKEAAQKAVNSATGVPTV
Rce1 inhib – yeast Ras-converting enzyme inhibition; Q03530; yeast membranes, quenched prenylated peptide cleavage fluorescence; calls only; 290,000 compounds, 0.27% hits;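 active = fall in fluorescence gain of 50% or more versus controls, with final raw signal at or below 3038400; inconclusive = same 50% fall but final raw signal above 3038400; inactive = fall in fluorescence gain under 50%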;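 also: plate controls were neutral control wells for no effect and wells lacking membranes for full effect; tested at 10 µM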
eIF4H FP inh – inhibitors of RNA binding by human eIF4H; Q15056; eIF4H fluorescence polarization binding assay; inhibition, % at 35 µM; 290,000 compounds, 0.94% hits;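 active = 50% or more with normal probe brightness, or confirmed in later tests; inconclusive = above 50% with abnormal brightness, or retests that disagree; inactive = below 50% or failed in later tests; about a fifth of its hits are not listed in these tables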;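 also: calls also rest on retests at 20 µM and on dose response follow-up; 0% = protein and probe with vehicle and 100% = probe without protein; strong numbers were not always called active; many hits fall short of the cut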
CSC inhib – cancer stem cell inhibition. cancer stem cell-like cells viability, luminescence. inhibition, % at 7.5 µM. 300,000 compounds, 1.1% hits. AID 2717;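 active = mean at 75% or more and at least half the replicates too; inconclusive = mean and replicates disagree; tested in HMLE shEcad cells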;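 also: 0% = median of negative and 100% = median of positive control wells; the first replicate is given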
eIF4H FP inh retest – recorded beside eIF4H FP inh, whose call it bears; inhibition, %; compound at 20 µM; confirmation average;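 mean of two retest wells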
PABP FP inh retest – also measured in PABP FP inh; calls as there; inhibition, %; compound at 20 µM; confirmation repeats;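 mean of two retest wells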
MT1-MMP act inh RFP – recorded beside MT1-MMP act inh, whose call it bears; RFP signal change, %; measured here: RFP expression control read;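 0 = vehicle wells; hits needed this value within 50% of zero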
* hit, by the source's call; i = inactive; ? = inconclusive; nt = no result given. Random draw from the library; about 2.9% have a hit in one of these screens.

SMILES | HIV Env fusion | UUG fidelity | MT1-MMP act inh | MT1-MMP act inh RFP | PABP FP inh | Rce1 inhib | eIF4H FP inh | CSC inhib | others
CNC(=O)c1cc(C(=O)c2ccc(C(F)(F)F)cc2)c[nH]1 | -1 | -3 | 2 | 0 | -2 | i | 0 | nt
Cc1ccc(-n2c(C)cc(/C=C3/SC(=O)N(CC(=O)N4CCOCC4)C3=O)c2C)nc1 | nt | nt | nt | nt | 36 | i | 72 | 6 | eIF4H FP inh retest=35;PABP FP inh retest=9
CCN1CCN(S(=O)(=O)c2ccc(S(=O)(=O)N(CC)Cc3ccccc3)cc2)CC1 | nt | 21 | 1 | -3 | -7 | i | 2 | 6
CC(C)NC(=O)c1ccc(COc2cc(Cl)ccc2Cl)o1 | 10 | -4 | -3 | -6 | 6 | i | -11 | 9
Cc1cc(C(=O)N2CCCC(N3CCN(c4ccccc4C)CC3)C2)nc(C)n1 (configuration not stated) | -211 | -9 | 1 | 2 | -4 | i | 1 | 9
CCOC(=O)N1CCN(CC(O)COc2cc(C)cc(C)c2)CC1 (configuration not stated) | 0 | 0 | -12 | -5 | -2 | i | -2 | -15
CCCCSc1nc(C(=O)O)cc(=O)[nH]1 | 9 | -20 | 10 | 2 | 17 | i | -2 | -7
CCN(CC)CCCN1C=C2C(=O)C(C)(OC(=O)CCc3ccccc3)C(=O)C=C2C=C1c1ccc(C#N)cc1 (configuration not stated) | nt | -10 | -6 | 1 | 33 | i | 47 | -6
COCc1c(C(=O)OC/C(O)=C(\C#N)c2nc3ccccc3[nH]2)oc2ccccc12 | 12 | nt | -5 | 5 | -12 | i | 4 | 0
CC(C)c1nnc(NC(=O)CCCC(=O)O)s1 | nt | -3 | -1 | 6 | -1 | i | 2 | -4
Cc1cc(C)cc(NC(=O)Cn2nnc3ccccc3c2=O)c1 | 3 | nt | 2 | -2 | 6 | i | -6 | -6
CCN(CC)S(=O)(=O)c1cc(C(=O)Nc2cccnc2Cl)ccc1Cl | 11 | nt | 4 | -1 | -9 | i | -1 | 5
O=C(COC(=O)c1ccccc1SCC(=O)N1CCCC1)NC1CCS(=O)(=O)C1 (configuration not stated) | -13 | 0 | -1 | 5 | nt | i | nt | 4
COc1cccc(NC(=O)c2ccc(CN3CCOCC3)cc2)c1 | nt | -25 | 1 | -1 | -1 | i | -8 | 18
CCc1ccccc1N(C(=O)CCC(=O)Nc1cc(C)on1)C(C(=O)NC1CCCC1)c1ccco1 (configuration not stated) | nt | 4 | -12 | -9 | -7 | i | -4 | -15
CO/N=C/NC(=O)NOCc1c(Cl)cccc1Cl | nt | -4 | nt | nt | 10 | i | -7 | 13
CCC1(CC)C(=O)N(c2ccccc2)C(=N)N(c2ccccc2)C1=O | -21 | -15 | 1 | 2 | nt | nt | nt | nt
COc1ccc(C2/C=C\CN(C(=O)C3CCCCC3)CC(=O)N2Cc2ccc(F)cc2)cc1 (configuration not stated) | 12 | -24 | -1 | -1 | 9 | i | -12 | -5
CC(CNCCCn1cnc2c(OCc3ccccc3)ncnc21)c1ccccc1 (configuration not stated) | -8 | -21 | 0 | 1 | nt | nt | nt | nt
Cn1c(=O)c2c(nc(SCC(=O)NC34CC5CC(CC(C5)C3)C4)n2C)n(C)c1=O | -41 | nt | 4 | 5 | -8 | i | -5 | 9
COc1cccc(NC(=S)NCCc2ccccn2)c1 | 2 | -24 | 5 | 6 | -7 | i | 2 | 8
CC[C@]1(C(=O)OC)[C@H]2C(=O)N(C)C(=O)[C@H]2[C@H]2CN=C(SCc3ccc(C(=O)OC)cc3)N21 | 8 | -4 | -3 | 3 | nt | nt | nt | nt
C(=NNc1nnn(Cc2ccccc2)n1)c1ccccc1 | -33 | -20 | 6 | -8 | nt | nt | nt | nt
NC(=O)c1c(NC(=O)c2ccccc2)sc2c1CCc1ccccc1-2 | -92 | nt | 3 | 2 | 8 | i | -4 | 3
O=C(NCc1ccccc1C(F)(F)F)C1CC(c2ccccc2C(F)(F)F)=NO1 (configuration not stated) | -18 | -11 | -1 | -1 | 3 | i | 2 | 1
O=C(NC1CCN(C(=S)NCc2ccco2)CC1)NC12CC3CC(CC(C3)C1)C2 | nt | -15 | 0 | 0 | -1 | i | 1 | -5
COc1cccc(NC(=O)CN(C)C(=O)C2CC3C=CC2C3)c1 (configuration not stated) | -447 | -14 | 6 | -7 | nt | nt | nt | -10
CC(NC(=O)c1cc(-c2ccccc2)on1)c1ccccc1 (configuration not stated) | -16 | 0 | 3 | 1 | -9 | i | -7 | -6
CCN(CC)CCCNC(=O)CCn1nc(-c2ccccc2)ccc1=O | 20 | 10 | -2 | 0 | 5 | i | -6 | -18
CCc1ccccc1NC(=S)N1CCC(C(=O)c2ccc(F)cc2)CC1 | nt | -25 | -1 | -1 | 5 | i | 2 | -3

A draw from above in order of count of non-hydrogen atoms, lowest first.
SMILES | HIV Env fusion | UUG fidelity | MT1-MMP act inh | MT1-MMP act inh RFP | PABP FP inh | Rce1 inhib | eIF4H FP inh | CSC inhib | others
CO/N=C/NC(=O)NOCc1c(Cl)cccc1Cl | nt | -4 | nt | nt | 10 | i | -7 | 13
COc1cccc(NC(=S)NCCc2ccccn2)c1 | 2 | -24 | 5 | 6 | -7 | i | 2 | 8
CC(NC(=O)c1cc(-c2ccccc2)on1)c1ccccc1 (configuration not stated) | -16 | 0 | 3 | 1 | -9 | i | -7 | -6
COc1cccc(NC(=O)CN(C)C(=O)C2CC3C=CC2C3)c1 (configuration not stated) | -447 | -14 | 6 | -7 | nt | nt | nt | -10
NC(=O)c1c(NC(=O)c2ccccc2)sc2c1CCc1ccccc1-2 | -92 | nt | 3 | 2 | 8 | i | -4 | 3
CCc1ccccc1NC(=S)N1CCC(C(=O)c2ccc(F)cc2)CC1 | nt | -25 | -1 | -1 | 5 | i | 2 | -3
O=C(NC1CCN(C(=S)NCc2ccco2)CC1)NC12CC3CC(CC(C3)C1)C2 | nt | -15 | 0 | 0 | -1 | i | 1 | -5
CC[C@]1(C(=O)OC)[C@H]2C(=O)N(C)C(=O)[C@H]2[C@H]2CN=C(SCc3ccc(C(=O)OC)cc3)N21 | 8 | -4 | -3 | 3 | nt | nt | nt | nt
COc1ccc(C2/C=C\CN(C(=O)C3CCCCC3)CC(=O)N2Cc2ccc(F)cc2)cc1 (configuration not stated) | 12 | -24 | -1 | -1 | 9 | i | -12 | -5

Next section
SMILES | HIV Env fusion | UUG fidelity | MT1-MMP act inh | MT1-MMP act inh RFP | PABP FP inh | Rce1 inhib | eIF4H FP inh | CSC inhib | others
Cc1ccc(NC(=Nc2ccc(Br)cc2)N2CCOCC2)cc1C | -3 | -1 | 0 | 1 | -8 | i | -8 | 33
CCOC(=O)COc1cccc2c(=O)n(CC(=O)N3CCc4ccccc43)ccc12 | -37 | -19 | 1 | 7 | 10 | i | -1 | -15
CN(C)CCCN(C(=O)c1ccc2c(c1)CCCC2)c1nc2cc3c(cc2s1)OCO3 | 9 | 8 | -1 | 4 | -6 | i | -13 | 8
CCC1COCCS(=O)(=O)N1Cc1ccccc1 (configuration not stated) | nt | 12 | 22 | 5 | 6 | i | -5 | 0
Cc1cccc(S(=O)(=O)Nc2ccc(-c3ccc4nncn4n3)cc2)c1 | 4 | nt | 1 | -2 | nt | i | nt | -12
Cc1ncc([N+](=O)[O-])n1CC(=O)Nc1ccc(Cl)cc1 | -3 | -14 | 2 | -1 | -11 | i | 4 | 2
CCN(CC)Cc1cc2[nH]c3c4ccc(Cl)cc4ncc3c2cc1OC | 4 | -8 | -3 | 0 | 8 | i | 27 | nt
CCOc1ccc(C(=O)Nc2sc3c(c2C(=O)OC)CC(C)(C)NC3(C)C)cc1 | 16 | -16 | -5 | -3 | 2 | i | -4 | -1
COc1cc(NC(=O)/C=C/c2ccccc2[N+](=O)[O-])cc(OC)c1 | 12 | nt | 5 | -1 | -16 | i | -7 | 10
CCN(c1ccccc1)S(=O)(=O)c1ccc(N2CCN(c3ccc(O)cc3)CC2)nc1 | 13 | nt | 0 | -15 | nt | nt | nt | 53
COc1ccc(/C=C(\NC(=O)c2ccccc2)C(=O)N/N=C/c2cccnc2)cc1 | 3 | nt | 0 | 2 | 2 | i | 12 | -6
CC1CCN(c2nc(-c3ccc(F)cc3)cc(C(F)(F)F)n2)CC1 | -50 | nt | -1 | 0 | -6 | i | -3 | 22
Cc1ccc(C)c(NC(=S)N2CCN(S(=O)(=O)c3ccccc3)CC2)c1 | -17 | -16 | 0 | 3 | 9 | i | 1 | -8
CCN(CC)C(=O)Cn1c(=O)c2ccccc2n2c(=S)sc(-c3cccc(C)c3)c12 | -3 | -6 | -149 | -4 | 6 | i | ? | -5
O=C(COC(=O)c1ccc(CN2CCCC2=O)cc1)Nc1ccc(F)cc1 | nt | -11 | 22 | -1 | nt | nt | nt | -14
CCOC(=O)c1ccc(-n2c(CCC(=O)O)ccc2-c2ccccc2)cc1 | 12 | -6 | -4 | -4 | -4 | i | -7 | 0
COCCNc1nc(-c2cc(C)c(C)cc2C)cs1 | 6 | nt | 3 | -1 | -2 | i | -14 | 2
CCOc1ccc(C(=O)NCC(=O)Nc2ccncc2)cc1OCC | nt | -5 | -2 | -3 | nt | nt | nt | -6
CCCOC1CCCN(Cc2cn(C)nc2-c2ccccc2F)C1 (configuration not stated) | -2 | -16 | -1 | 1 | -2 | i | 5 | -11
COc1cc(/C=C/C(=O)Nc2ccc3nc4n(c(=O)c3c2)CCCC4)cc(OC)c1OC | 16 | nt | 0 | -9 | -15 | i | 1 | 18
CCOc1ccc2nc(SCc3ccccc3C#N)sc2c1 | -57 | -13 | -4 | -4 | 3 | i | -1 | -1
CCN1C(=O)c2cccc3c(NS(=O)(=O)c4ccc(NC(C)=O)cc4)ccc1c23 | 9 | -20 | 18 | 3 | 8 | i | 5 | -14
COc1ccc(C(=O)N/N=C(/C)c2cccc(NC(=O)C(F)(F)F)c2)cc1 | -6 | nt | 5 | 4 | 3 | i | -6 | -6
COc1ccc(C(C)=O)cc1CSCC(=O)O | 2 | nt | 2 | -1 | -11 | i | 11 | -7
COC(=O)c1ccc2nc(-c3ccc(Cl)cc3)c(Cc3ccccc3OC)n2c1 | 0 | 4 | -7 | 3 | nt | nt | nt | nt
Cc1ccc(N(C(=O)c2cccs2)C2C=CS(=O)(=O)C2)cc1 (configuration not stated) | 41 | -12 | -3 | 1 | -9 | i | 5 | -10
Cc1ccc(C)c(S(=O)(=O)NCCN2CCOCC2)c1 | -11 | -7 | 0 | 0 | 5 | i | -5 | -22
CC(C)COP(=O)(CNC(=O)CN1C(=O)c2ccccc2S1(=O)=O)OCC(C)C | nt | nt | -2 | 2 | 18 | i | -8 | -8
CCOc1ccccc1C(=O)N/N=C/c1ccoc1 | -18 | -12 | -3 | 2 | 21 | i | 29 | -10
CC(=C\C(=O)O)/C(=C\c1cccc2ccccc12)C(=O)O | 6 | -21 | -2 | 1 | -11 | i | -12 | -5
COc1ccc(Nc2ccccc2C(=O)O)cc1 | -14 | nt | 1 | 6 | -7 | i | 4 | -11
O=C1COc2ccc(C(=O)COC(=O)c3c(F)cccc3Cl)cc2N1 | nt | -23 | -1 | -1 | nt | nt | nt | -6
CCOC(=O)N1CCN(C(=O)c2cccc(OC)c2O)CC1 | -31 | -4 | 3 | 5 | -6 | i | 6 | -7
